Screening results from PubChem.
D2 ag – human D2 receptor agonism in beta-arrestin assay; P14416; DiscoveRx PathHunter D2 beta-arrestin, luminescence, 90 min; 100% = 57 uM dopamine signal; activation, % (test concentration not listed); 0.084% of 360,000 active; AID 624465; in the data active = activation above about 40%; inconclusive = about 15% to 40%; inactive = below about 15%; note: compound concentration not given in the record; the text of the record calls up to 30% inactive
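DiscoveRx PathHunter D2 beta-arrestin cells (2,100/well) attached overnight, then compound-stimulated 90 min at 37 C in HBSS/10 mM HEPES/0.1% Tween-20 buffer; beta-galactosidase complementation read by luminescence after 1 h at ambient temperature. Dopamine 57 uM final (EC100) as control.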
Six1-Eya2 inh – inhibitors of human Six1/Eya2 interaction; Q15475+O00167; AlphaScreen GST-Six1/His-Eya2 binding, biochemical; active compounds read low; control for the full effect not named in the record; activity change, % (concentration not given with the values); 0.56% of 360,000 active; AID 651725; in the data active = activity change below about -65%; inconclusive = about -30% to -65%; inactive = above about -30%; note: % is set by controls: 0 for no effect and ±100 for the full control effect
Target sequence (O00167 whole entry, looked up): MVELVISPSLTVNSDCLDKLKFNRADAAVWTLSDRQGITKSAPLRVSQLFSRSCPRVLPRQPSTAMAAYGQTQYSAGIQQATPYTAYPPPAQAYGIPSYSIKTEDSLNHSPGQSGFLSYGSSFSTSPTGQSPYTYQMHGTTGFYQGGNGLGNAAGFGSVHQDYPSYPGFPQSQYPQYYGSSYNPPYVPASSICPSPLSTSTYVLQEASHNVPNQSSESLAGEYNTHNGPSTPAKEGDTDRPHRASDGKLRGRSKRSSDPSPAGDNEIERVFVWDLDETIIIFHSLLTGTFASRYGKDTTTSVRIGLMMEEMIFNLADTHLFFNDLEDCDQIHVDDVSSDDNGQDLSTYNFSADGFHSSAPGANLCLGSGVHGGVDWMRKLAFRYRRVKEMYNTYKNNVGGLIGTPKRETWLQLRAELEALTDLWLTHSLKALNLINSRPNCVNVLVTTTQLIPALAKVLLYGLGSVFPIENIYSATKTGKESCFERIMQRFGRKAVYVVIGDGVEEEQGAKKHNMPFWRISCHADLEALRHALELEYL
Target sequence (Q15475 whole entry, looked up): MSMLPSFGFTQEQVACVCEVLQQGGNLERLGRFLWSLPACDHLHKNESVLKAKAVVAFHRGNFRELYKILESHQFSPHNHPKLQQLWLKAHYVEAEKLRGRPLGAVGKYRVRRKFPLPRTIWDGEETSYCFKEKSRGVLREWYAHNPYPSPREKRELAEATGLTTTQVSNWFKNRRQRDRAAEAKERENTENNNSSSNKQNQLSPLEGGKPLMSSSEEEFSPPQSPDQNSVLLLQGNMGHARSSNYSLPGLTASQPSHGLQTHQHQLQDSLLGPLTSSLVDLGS
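Six1/Eya2 binding was read as AlphaScreen signal after compounds were pinned into GST-Six1 plus His-tagged Eya2 (5X stock 250/500 nM) in pH 8.0 Tris/NaCl/TCEP buffer, beads added, then incubated 1 h, 37 C, dark.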
D2 potentiator – positive allosteric modulators of human D2 dopamine receptor. P14416. AID 624464. potentiation, % (test concentration not listed). 0.23% of 360,000 active. DiscoveRx D2 beta-arrestin cells, luminescence, 90 min; 100% = 57 uM dopamine signal; active = potentiation of 50% or more; inconclusive = 30% to 50%; inactive = 30% or less;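 note: compound concentration not given in the record; tested on top of an EC20 dose of dopamine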
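PathHunter D2 cells, attached overnight at 37 deg C, received compound in DMSO plus dopamine at EC20 (50 nM final) for 90 min at 37 deg C. Beta-arrestin recruitment was read as luminescence after 1 h with detection reagent at ambient temperature.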
PINK1 modulator – changes PINK1 expression; PINK1 immunofluorescence, high-content cytometry, 24 h; Potency, µM (titrated, usually from 76.6 µM), for inactives: at the highest dose activation (PINK1 increase), hits mostly activators; 0.2% of 410,000 active; active = well fitted activation curve with a large enough effect; inconclusive = small, poorly fitted or top-dose-only effect; inactive = flat fitted curve, though single readings scatter; cell line not stated here;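 note: potency is the fitted concentration of half-maximal effect; % of control where 0% means no effect; nearly all actives have a fitted effect of over 65% in size; a mitochondrial uncoupler was the plate control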
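Stable cell line, 250 cells/well, 12 h attachment; compounds pinned at 5 concentrations, 24 h; CCCP control. Fixed with nuclear dye, primary antibodies 12 h at 10 degrees C, secondary plus cell stain; laser-scanning cytometer read.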
TRPML1 inh – human mucolipin-1 channel inhibition; 0.02% of 390,000 active; Q9GZU1; activity change, negative = inhibition, % (concentration not given with the values); TRPML1-inducible cells, Ca2+ dye fluorescence, FDSS; active compounds read low; inhibition of EC80 agonist-evoked calcium signal; in the data active means activity change below about -50%; inconclusive means about -30% to -50%; inactive means above about -30%;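 note: stimulus is agonist 54-4 at its EC80 concentration; % is set by controls: 0 for no effect and ±100 for the full control effect; the text of the record puts the active cut at -80%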
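Tet-induced TRPML1-DL cells loaded with Ca8 no-wash calcium dye were read kinetically on FDSS. Compound addition was followed by EC80 agonist 54-4 (4 uM final); inhibition was read over 110 s.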
TRPML1 ag – human mucolipin-1 channel agonism; Q9GZU1; TRPML1-expressing cells, Ca2+ dye fluorescence, FDSS; host cell line not named in the record; reference of the full effect not given here; 0.12% of 410,000 active; activation, % (test concentration not listed); in the data active = activation above about 50%; inconclusive = about 30% to 50%; inactive = below about 30%; note: 0% is about no effect; the text of the record puts the active cut at 80%
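Agonist activity was taken from a 110 s kinetic Ca2+ dye read on the FDSS after pinning compounds onto TRPML1-DL cells. The cells were seeded at 1,500/well with Tet inducer, incubated about 16 h, then dye-loaded at room temperature.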
* = called active by the depositor; ? = inconclusive; nt = no result given; [ ] = remark or other dose.

Value order: D2 ag | Six1-Eya2 inh | D2 potentiator | PINK1 modulator | TRPML1 inh | TRPML1 ag
CCN(CC)S(=O)(=O)c1cccc(NC(=O)CN2C(=O)NC3(CCOc4ccccc43)C2=O)c1 (stereo unspecified)
→ 2.7 | -4 | -6 | 0.0% | -8 | -0.1
COC(=O)C(C)(C)ONC(=O)Nc1ccccc1[N+](=O)[O-]
→ 6.2 | -5 | 2 | 0.2% | 51 | -0.6
CCOc1ccc(NC(=O)c2oc3ccccc3c2NC(=O)Cc2cccs2)cc1
→ nt | nt | nt | 8.6% | -5 | -1.1
Cc1nc(SCc2ccc(O)c([N+](=O)[O-])c2)n[nH]1
→ -2.4 | 3 | -6 | -0.5% | 2 | 0.3
CCc1ccc2oc(C(=O)Nc3nonc3C)c(C)c2c1
→ 0.8 | 7 | -9 | 1.4% | 8 | -0.9
COc1ccc(NC(=O)COc2ccccc2C)cc1S(=O)(=O)N1CCCCC1
→ -0.4 | -10 | 5 | 0.1% | 24 | 1.8
Cc1ccc(CNC(=O)CN(Cc2cccs2)C(=O)C2(C)CC(=O)N=C3C=CC=CN32)cc1 (stereo unspecified)
→ -0.1 | 11 | 8 | -0.9% | -1 | 1.0
O=S(=O)(Nc1ccncc1)c1ccccc1
→ -1.8 | -1 | -6 | 0.7% | -2 | 0.5
CCc1cc(=O)oc2cc(C)cc(OCC(=O)N3CCC(C(=O)NC(C)C)(c4ccccc4)CC3)c12
→ 3.8 | -4 | 3 | 10% | 12 | 2.7
O=C(CSCc1c(F)cccc1Cl)NCC1CCCO1 (stereo unspecified)
→ 1.1 | 0 | -12 | ? | 0 | -0.6
Cn1ccnc1SCC(=O)N(C1CCCCC1)C1CCCCC1
→ -2.0 | -2 | -6 | -1.0% | 18 | 1.5
C#Cc1ccc(NC(=O)C2(C)CCN2C(=O)Cc2ccc(C(C)(C)C)cc2)cc1 (stereo unspecified)
→ -5.4 | 5 | -7 | 8.2% | nt | 0.2
S=C(N/N=C/c1ccco1)NC1CC2CCC1C2 (stereo unspecified)
→ -0.1 | -15 | -4 | 3.9% | 3 | -0.9
CCCC(=O)N1c2nc(C(C)C)nn2C2(CCCCC2)[C@@H]2CCCC[C@@H]21
→ nt | nt | nt | -0.6% | 26 | 1.0
Cc1ccc(C(O)(C(=O)NNc2ccccn2)c2ccc(C)cc2)cc1
→ -4.9 | -5 | 0 | 0.7% | -4 | -0.7
CN1C(=O)C(O)(c2nnc(-c3ccccc3)o2)c2ccccc21 (stereo unspecified)
→ 2.5 | -1 | -8 | -1.3% | -8 | 0.4
O=C(O)c1ccccc1NC(=O)c1cc(-c2ccccc2)nc2ccccc12
→ -6.3 | ? | 2 | 2.8% | 23 | 1.3
Cc1ccc(C(=O)Oc2cccc(-n3cnnn3)c2)cc1
→ 2.3 | -18 | 4 | -0.7% | -15 | 1.6
COc1ccc(NC(=O)C2CCN(S(=O)(=O)c3ccccc3)CC2)cc1
→ -4.1 | 3 | -2 | 1.0% | -2 | 1.7
CC(C)c1ccccc1NC(=O)C1CN(S(=O)(=O)c2ccccc2)CCN1S(=O)(=O)c1ccccc1 (stereo unspecified)
→ 2.9 | 0 | 8 | 3.1% | -5 | 1.7

Single records, from the list above. Order of values: D2 ag	Six1-Eya2 inh	D2 potentiator	PINK1 modulator	TRPML1 inh	TRPML1 ag
CC(C)c1ccccc1NC(=O)C1CN(S(=O)(=O)c2ccccc2)CCN1S(=O)(=O)c1ccccc1 (stereo unspecified) is listed with 2.9	0	8	3.1%	-5	1.7
COc1ccc(NC(=O)C2CCN(S(=O)(=O)c3ccccc3)CC2)cc1 is listed with -4.1	3	-2	1.0%	-2	1.7
CCCC(=O)N1c2nc(C(C)C)nn2C2(CCCCC2)[C@@H]2CCCC[C@@H]21 is listed with nt	nt	nt	-0.6%	26	1.0
O=C(O)c1ccccc1NC(=O)c1cc(-c2ccccc2)nc2ccccc12 is listed with -6.3	?	2	2.8%	23	1.3

Continued:
Value order: D2 ag | Six1-Eya2 inh | D2 potentiator | PINK1 modulator | TRPML1 inh | TRPML1 ag
Cc1cc(Br)cn2c(Cc3ccccc3C(F)(F)F)c(-c3ccc(Cl)cc3)nc12
→ nt | -3 | nt | 6.7% | nt | -0.5
O=C(Nc1ccccc1Cl)c1cc(C2CCCCN2S(=O)(=O)c2ccc(F)cc2F)on1 (stereo unspecified)
→ -3.1 | 0 | -2 | 3.5% | nt | -0.2
Cc1c(Cl)cccc1NC(=O)Cn1c(CCC(=O)O)ccc1-c1ccccc1
→ 0.4 | 0 | 3 | 0.5% | nt | nt
CCCC(O)(c1ccc(OC)cc1)C(CN1CCOCC1)c1ccccc1 (stereo unspecified)
→ -2.2 | 2 | 0 | -0.1% | 12 | 0.1
Clc1cccc(Cl)c1C1Nc2cccc3cccc(c23)N1
→ 13 | -20 | 0 | 3.0% | 6 | -0.6
CCOc1cc(N2CCOCC2)c(OCC)cc1NC(=O)Cc1ccccc1
→ 5.7 | -16 | 8 | -1.5% | 25 | 1.0
CCC/C(C#Cc1ccc(N(C)C)cc1)=C1/c2ccccc2C(=O)N1c1ccccc1
→ -0.9 | 54 | -9 | 0.1% | 0 | 7.5
O=S1(=O)c2ccccc2N=NN1Cc1ccc(Cl)cc1
→ 6.2 | 0 | ? | 0.6% | 21 | -1.0
CN(C)c1nc(SCc2ccccc2)nc(N2CCOCC2)n1
→ -3.4 | 8 | -16 | 0.6% | 8 | -0.1
O=C(Nc1cc([N+](=O)[O-])ccc1O)NC1CCS(=O)(=O)C1 (stereo unspecified)
→ -3.5 | -1 | -8 | 1.7% | -8 | 4.4
COc1ccccc1NS(=O)(=O)c1cc(C(=O)NCc2cccnc2)ccc1C
→ 3.5 | 3 | -2 | -1.2% | -13 | 0.7
CC12c3ccccc3C(c3ccccc31)C1C(=O)N(c3cccnc3)C(=O)C12 (stereo unspecified)
→ -3.4 | -5 | -1 | 1.7% | 16 | -0.3
O=[N+]([O-])c1ccc(-c2nc(NCC3CCCO3)c3ccccc3n2)cc1 (stereo unspecified)
→ 0.8 | 0 | 1 | 5.2% | -3 | 0.5
CC(C)NS(=O)(=O)c1ccc(NC(=O)C(C)OC(=O)CCCOc2ccccc2)cc1 (stereo unspecified)
→ 11 | 6 | 6 | 2.1% | 9 | 0.1
O=C(NC1CCCCC1)c1ccccc1-c1ccccc1
→ -3.1 | 6 | -5 | 0.4% | 18 | 0.0
N/C(COc1cccc(C(F)(F)F)c1)=N\NC(=O)c1cccnc1Oc1ccccc1
→ -2.9 | -1 | -4 | 0.1% | 6 | 1.0
CCc1nnc(SCc2nc(-c3ccc(OC)c(OC)c3)oc2C)c2cc3sc(C)cc3n12
→ nt | nt | nt | 0.5% | 9 | -0.4
CCc1nc2ccc(C(=O)NCCCn3ccnc3)cn2c1N(C)C(=O)C1CCCCC1
→ 1.7 | -6 | -1 | 2.8% | nt | -0.7
CCN1CCCC1CNC1=NCCCCC1 (stereo unspecified)
→ -1.4 | 5 | -3 | 2.6% | 15 | 1.1
Cc1cc(C(=O)N/N=C/c2ccc(-c3cccc([N+](=O)[O-])c3)o2)n[nH]1
→ -1.8 | -14 | -8 | 11% | 2 | -0.8
COc1ccc(Cl)cc1NC(=O)C1CCCN(S(=O)(=O)c2ccc3c(c2)CCCC(=O)N3)C1 (stereo unspecified)
→ nt | nt | nt | 0.5% | -2 | 2.1
COc1ccc(C(C)C)cc1S(=O)(=O)NCCc1c(C)[nH]c2c(Cl)cccc12
→ nt | nt | nt | ? | 18 | 4.4
COc1cccc(-c2nc(-c3ccc(-c4ccccc4)nc3OC)no2)c1
→ nt | nt | nt | -0.1% | -12 | 2.1
COC(=O)[C@@]1(Cc2ccc(F)cc2)[C@H]2c3cc(C(=O)N(C)C)n(Cc4ccc(Cl)c(C(F)(F)F)c4)c3C[C@H]2CN1C(=O)c1ccccc1
→ nt | -12 | nt | 2.9% | nt | -0.5
Cc1ccc(Cn2c(=N)n(CC(=O)c3ccc([N+](=O)[O-])cc3)c3ccccc32)cc1
→ -3.3 | -4 | 18 | 13% | 22 | -0.2
CCN(CC)CCN1C(=O)C2C3c4ccccc4C(c4ccccc43)C2C1=O (stereo unspecified)
→ 0.4 | 3 | 12 | -2.2% | 14 | -0.2
CSc1ccc(CN2CCC(Oc3cccc(C(=O)N4CCCC4)c3)CC2)cc1
→ -0.8 | -13 | -20 | 0.1% | 5 | -0.1
Nc1ccc(-n2nc3ccccc3n2)cc1
→ 1.8 | 5 | -1 | 7.2% | -10 | 2.0
CC(C)(C)C1=CC(=O)C(=O)C(C(C)(C)C)=C1
→ ? | -2 | -7 | -1.5% | -2 | 0.2
CCN(CC)CCCn1c(=S)[nH]c2ccc(Cl)cc2c1=O
→ -2.0 | -2 | -17 | -0.9%[38.3 µM] | 3 | 3.2
COc1ccc(CCNC(=O)C/C(C)=N/NC(=O)C23CC4CC(CC(C4)C2)C3)cc1OC
→ -4.2 | 6 | -27 | 5.1% | -1 | -0.3
Cc1n[nH]c(C)c1C(=O)CC1(O)C(=O)N(Cc2ccccc2)c2ccc(Br)cc21 (stereo unspecified)
→ -0.6 | -1 | -4 | -1.2%[38.3 µM] | 1 | -0.7
COc1ccc(Cl)cc1NC(=O)c1oc2ccc(S(=O)(=O)N3CCCCC3)cc2c1C
→ nt | nt | nt | -1.5% | -2 | -0.7
CC(=O)Nc1ccc(Nc2c(CCC(C)C)c(C)c(C#N)c3nc4ccccc4n23)cc1
→ nt | nt | nt | 3.3% | 8 | 1.7
O=C(O)CCSC(=S)N1CCOCC1
→ -5.1 | 2 | 0 | -0.6% | nt | nt
COC(=O)CN1C(C(=O)c2ccccc2)=C(OC(=O)c2ccc(C)cc2)c2ccccc2S1(=O)=O
→ nt | nt | nt | 3.1% | 4 | 1.4
COc1ccc(CN2C(=O)c3cccnc3C2=O)cc1S(=O)(=O)N(C)c1cccc(C)c1
→ 0.4 | -3 | 2 | -0.1% | 13 | 1.3
CCN(CC)S(=O)(=O)c1cccc(NC(=O)COc2ccc(F)cc2Br)c1
→ 4.4 | 10 | -5 | 2.8% | 44 | 5.7
Cc1ccc(NC(=O)CC(=O)Nc2ccc(C)cc2)cc1
→ -3.4 | 0 | -19 | 0.4% | -5 | -0.3
COc1ccc(-c2n[nH]c(=S)n2N)c(OC)c1
→ -0.7 | 8 | -14 | -0.8% | -4 | 0.6
CC1N(C(=O)N2CCOCC2)CCN1S(=O)(=O)c1ccc(Cl)cc1 (stereo unspecified)
→ -2.3 | 7 | 1 | 1.8% | -13 | -0.5
COc1ccc(N2C(=O)CC(N3CCN(c4ccc(S(C)(=O)=O)cc4)CC3)C2=O)cc1 (stereo unspecified)
→ -1.6 | -2 | -5 | -2.5%[38.3 µM] | -13 | 0.4
COc1ccc(NC(C)=O)cc1NS(=O)(=O)c1cn(C)c(=O)n(C)c1=O
→ -4.9 | 1 | -2 | 1.3% | -1 | -0.1
Cc1cccc(CNC(=O)CSCc2cnn(-c3ccccc3)c2-n2cccc2)c1
→ nt | nt | nt | 0.4% | -4 | 3.5
